gsp agonist: activates gsp, the McCune-Albright syndrome mutation | gsp mutant cells, cAMP HTRF, 30 min; control for the full effect not named in the record | Potency, µM (titrated, usually from 76.9 µM), for the others: top-dose activation (cAMP increase), hits mostly activators | hit rate 0.13% among 340,000 | AID 624287; active = well fitted activation curve with a large enough effect; inconclusive = small, poorly fitted or top-dose-only effect, or another doubt; inactive = no such curve, though single readings can be large or run the other way; cell line not stated here;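 also: phosphodiesterase inhibitor Ro 20-1724 added with compounds to block cAMP breakdown; potency is read from the fitted curve at half-maximal effect; nearly all actives have a fitted effect of over 60% in size; about a fifth of the inactives were tested at one dose only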
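Cells in DMEM/10% FBS with G418 were pretreated with compounds in DMSO plus […] (300 uM stock) for 30 min at 37C. cAMP was measured by HTRF (cAMP-d2 plus anti-cAMP antibody-K) after 30 min at room temperature.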
D2 agonist: human D2 receptor agonism in beta-arrestin assay; P14416; DiscoveRx PathHunter D2 beta-arrestin, luminescence, 90 min; 100% = 57 uM dopamine signal; activation, % (test concentration not listed); hit rate 0.084% among 360,000; in the data active = activation above about 40%; inconclusive = about 15% to 40%; inactive = below about 15%; also: compound concentration not given in the record; the text of the record calls up to 30% inactive
Target sequence (P14416 whole entry, looked up): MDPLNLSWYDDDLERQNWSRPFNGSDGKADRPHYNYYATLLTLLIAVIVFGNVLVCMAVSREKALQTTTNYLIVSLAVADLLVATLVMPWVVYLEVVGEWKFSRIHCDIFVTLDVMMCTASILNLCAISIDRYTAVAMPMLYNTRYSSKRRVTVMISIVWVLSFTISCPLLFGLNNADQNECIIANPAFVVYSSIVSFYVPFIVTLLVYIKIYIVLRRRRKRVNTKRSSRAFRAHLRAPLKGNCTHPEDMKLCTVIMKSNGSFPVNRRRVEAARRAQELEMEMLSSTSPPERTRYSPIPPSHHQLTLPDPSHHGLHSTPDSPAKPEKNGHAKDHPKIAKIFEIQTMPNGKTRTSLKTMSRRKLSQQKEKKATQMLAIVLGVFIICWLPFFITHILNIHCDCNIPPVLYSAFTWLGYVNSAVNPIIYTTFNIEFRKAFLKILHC
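Agonist mode: compounds alone added to overnight-plated D2 PathHunter cells for 90 min at 37 C, with 57 uM final dopamine (EC100) defining full response. Beta-arrestin recruitment detected by chemiluminescent reagent, read after 1 h at ambient temperature.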
PINK1 expr mod: PINK1 expression modulation; PINK1 immunofluorescence, high-content cytometry, 24 h; hit rate 0.2% among 410,000; Potency, µM (titrated, usually from 76.6 µM), without a hit: top-dose activation (PINK1 increase), usual class: activators; AID 624263; active = well fitted activation curve with a large enough effect; inconclusive = small, poorly fitted or top-dose-only effect; inactive = flat fitted curve, though single readings scatter; cell line not stated here;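 also: potency is read from the fitted curve at half-maximal effect; % of control where 0% means no effect; nearly all actives have a fitted effect of over 65% in size; a mitochondrial uncoupler was the plate control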
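Cells are seeded, rested 12 hours, then given compound at five concentrations or DMSO for 24 hours. After fixation, blocking and antibody staining, PINK1 amount and mitochondrial localization are scored; CCCP serves as control.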
Menin-MLL FL inh: inhibitors of human menin-MLL interaction, wild-type MLL peptide; Fluorescence polarization, fluorescein-MLL peptide displacement from menin; FP activity change, % at 61.4 µM; 290,000 tested, under 10 active; inconclusive = falling polarisation curve, or a change in total fluorescence; inactive = total fluorescence flat and polarisation flat or rising; no compound was filed as active; the % refers to the polarisation; negative = inhibition;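 also: % of control where 0% means no effect; inhibitors lower the polarisation; unlabelled MLL peptide was the positive control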
Sfp PPTase inh: Sfp phosphopantetheinyl transferase inhibition | Q9F4F7 | Biochemical Sfp PPTase activity, qHTS | Potency, µM, without a hit: max response, negative = inhibition, most hits filed as inhibitors | hit rate 3.5% among 310,000; active = well fitted inhibition curve with a large enough effect; inconclusive = small, poorly fitted or top-dose-only effect, or another doubt; inactive = no such curve, though single readings can be large or run the other way;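 also: the enzyme is Sfp with the accession as filed and its product quenches rhodamine fluorescence; potency is read from the fitted curve at half-maximal effect; 0% = enzyme reaction without inhibitor and -100% = no enzyme wells; top concentration of the series not given in the record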
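Step 1, compound plus 15 nM Sfp-PPTase, 15 min, room temperature. Step 2, add rhodamine-CoA (5 uM) and BHQ-2-YbbR (12.5 uM). Step 3, read 525/598 nm fluorescence at 0 and 30 min.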
ClpP mod: qHTS Assay for Activators of ClpP | ATP-dependent Clp protease proteolytic subunit (Bacillus subtilis (strain 168)), P80244 | purified B. subtilis ClpP, FRET peptide cleavage, 20 min | Potency, µM (series often up to 57.5 µM), for the others: top-dose activity change, negative = active | hit rate 1.9% among 340,000 | AID 651965, 2013; active = well fitted falling curve with a large enough effect; inconclusive = small, poorly fitted or top-dose-only effect; inactive = no such curve, though single readings can be large or run the other way; also: potency is read from the fitted curve at half-maximal effect; the source files actives as falling curves though it sought activators and does not explain the sign; nearly all actives have a fitted effect of over 65% in size; many hits overshoot -100%
Target sequence (P80244 whole entry, looked up): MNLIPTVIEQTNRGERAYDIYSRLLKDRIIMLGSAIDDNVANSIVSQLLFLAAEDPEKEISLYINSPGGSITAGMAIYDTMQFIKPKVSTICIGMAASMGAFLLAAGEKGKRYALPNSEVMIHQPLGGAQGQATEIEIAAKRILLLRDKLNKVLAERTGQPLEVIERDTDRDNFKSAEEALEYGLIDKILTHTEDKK
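Buffer: 100 mM Tris/HCl pH8, 100 mM KCl, 0.05% low protease BSA, 2.5% glycerol, 0.01% Tween-20. ClpP 10 microg/mL final; 20 min RT; delta FRET normalized to ADEP and DMSO controls.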
gsp antagonist: antagonists of gsp mutant (McCune-Albright syndrome); gsp-mutant cells, cAMP HTRF, 30 min; control for the full effect not named in the record; Potency, µM (series often up to 76.9 µM), inactives show top-dose activity change, negative = inhibition, usual class: inhibitors; hit rate 0.4% among 340,000; active = falling curve of any shape with a large fitted effect; inconclusive = falling curve, mostly with a smaller effect; inactive = flat or rising curve; cell line not stated here;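 also: intracellular cAMP measured with PDE inhibitor Ro 20-1724 present during compound exposure; potency is read from the fitted curve at half-maximal effect; % is scaled to controls: 0 for no effect and ±100 for the full control effect; nearly all actives have a fitted effect of over 65% in size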
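Cells, 2000/well, grown 16–24 h in DMEM 10% FBS with 0.5 mg/ml G418, then compounds plus […] (300 uM addition stock), 30 min at 37C. cAMP read by HTRF (cAMP-d2 and anti-cAMP antibody-K in lysis buffer) after 30 min RT.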
The depositor's hits bear a star; ? = inconclusive; · = not tested or not shown; & = joins results of further samples; [ ] = remark or other dose.

SMILES | gsp agonist | D2 agonist | PINK1 expr mod | Menin-MLL FL inh | Sfp PPTase inh | ClpP mod | gsp antagonist
COCCSc1nnc(NC(=O)COc2ccc3c(c2)OCO3)s1 | -7%[15.4 µM] | -1.9 | 1.3% | 2.4 | 6% | · | 4%
N#CC1=C2SCC(O)(c3ccccc3)N2C(=O)CC1c1cccs1 (configuration not stated) | 28% | -3.9 | 27%[38.3 µM] | 5.6 | 18µM* | 0.3% | 8%
CC(=O)c1cnc2cc(-c3ccc(C)cc3)nn2c1C | 29% | 0.4 | 1.0%[38.3 µM] | 3.8 | 13% | ? | 3%
COC(=O)Cn1c(=NC(=O)CSC(C)=O)sc2ccccc21 | ? | -2.4 | 2.0% | 2.5 | 13% | -7.3% | ?
COc1cc(-c2cc(C(=O)Nc3ccc(O)cc3)c3ccccc3n2)cc(OC)c1OC | -4% | -2.5 | 0.4% | 0.1 | 22µM* | -1.1% | -31%
CCn1c(=O)n(CC(=O)N2CC(C)CC(C)C2)c(=O)c2ccccc21 (configuration not stated) | -39% | -3.6 | -2.1%[38.3 µM] | 2.6 | 10% | ? | -4%
COC(=O)COC(=O)c1ccc(O)cc1 | -7% | -3.2 | 33%[38.3 µM] | -0.1 | 16% | 3.3% | 11%
Cc1ccc(NC(=O)C2CC(=O)OC23CCOC(C)(C)C3)cc1 (configuration not stated) | 14% | -6.7 | -1.4% | -0.4 | 16% | -0.6% | 3%
Nc1nc(N2CCN(Cc3ccccc3)CC2)n[nH]1 | 13% | 68* | -2.2% | -2.1 | -9% | · | -2%
CC(=O)/C(=N/Nc1ccc(Br)cc1)Sc1cccc2cccnc12 | 0% | -0.3 | 2.1% | 1.0 | -8% | -2.1% | -22%
CCCNC(=O)C1(C)CCCN(C(=O)/C=C/c2ccccc2)C1 (configuration not stated) | · | -3.7 | -0.4% | · | · | 1.2% | ·
CCCCn1c(NCc2ccccn2)nc2ccccc21 | 7% | -3.3 | 5.1%[38.3 µM] | 0.9 | 56µM* | -1.5% | 1%
CCN1CCN(c2ccc(S(=O)(=O)N3CCCCC3)cc2NC(=O)/C=C/c2ccc(OC)c(OC)c2)CC1 | -4% | -2.4 | 1.3% | · | · | -2.7% | -5%
COc1cccc(C(=O)Cn2c(=O)n(CCC(=O)NCC3CCCO3)c(=O)c3cc(OC)c(OC)cc32)c1 (configuration not stated) | -1% | 2.1 | 0.1% | 0.2 | -11% | -2.0% | -14%
COCCn1c(C)cc(C(=O)COC(=O)c2ccc[nH]c2=O)c1C | -58%[inhibitor] | 0.2 | -2.2% | 4.9 | 17% | -1.9% | 3%
CC(C)c1ccc(NC(=S)NN2CCN(C)CC2)cc1 | -31%[inhibitor] | -0.2 | 2.4% | 2.2 | 8% | 2.5% | 5%
CC1CCCCN1C(=O)CCS(=O)(=O)c1cc2c(cc1Cl)NC(=O)CO2 (configuration not stated) | 17% | -4.3 | 0.2%&-0.6% | -3.1 | 1% | 1.3%&0.0% | 2%
CCOC(=O)NNc1ccc2nonc2c1[N+](=O)[O-] | 20% | 6.4 | 0.7% | -1.6 | 20µM* | · | -23%
Cc1cc(C)c2[nH]c(=O)c(C(c3nnnn3C(C)(C)C)N3CCN(C(=O)c4ccco4)CC3)cc2c1 (configuration not stated) | 5% | 1.4 | -2.6%[38.3 µM] | 0.3 | 18µM* | ? | -8%
O=C(COc1cnc2ccccc2n1)NCCC1=CCCCC1 | ? | -0.8 | -1.9% | 0.2 | 10% | ? | 2%
NC(=S)Nc1ccc(F)cc1F | 2%[15.4 µM] | -4.8 | -1.5% | 2.9 | -6% | 0.8% | -1%
O=C(NCc1ccc2c(c1)OCO2)c1ccc(CN2CCOCC2)cc1 | -3% | -1.8 | -0.1%[38.3 µM] | 0.4 | 18% | -2.5% | 0%
CCOC(=O)c1cnn2c(C(F)(F)F)cc(-c3ccco3)nc12 | ? | -0.3 | 0.1% | 1.3 | 3% | 32µM* | 2%
COc1ccc(CC(=O)NCC(c2ccc(OC)cc2)N(C)C)cc1 (configuration not stated) | 17% | -5.0 | 0.7% | -2.3 | 9% | 0.6% | 6%
Cc1cc(-c2ccc(C(=O)O)s2)cnc1N | 4% | 1.6 | 0.7% | -0.1 | 7% | 3.8% | -10%
SMILES | gsp agonist | D2 agonist | PINK1 expr mod | Menin-MLL FL inh | Sfp PPTase inh | ClpP mod | gsp antagonist
O=C(NC(Cc1ccccc1)C(=O)N1CCN(c2ccccc2O)CC1)c1ccccc1 (configuration not stated) | -1%[15.4 µM] | 3.0 | 2.6% | · | · | · | -14%
CN(C)Cc1ccccc1-c1ccc2ncnc(N3CCOCC3)c2c1 | · | · | -0.9% | -13 | -6% | · | ·
O=C(c1ccc(CS(=O)(=O)c2ccccc2)o1)N1CCN(c2ncccn2)CC1 | 1% | -2.2 | 0.0% | -1.8 | 2% | -13% | -5%
Cc1c(CN(C)CCc2ccccc2)c(=O)n(-c2ccccc2)n1C | -41%[inhibitor] | 0.2 | -1.2%[38.3 µM] | -2.0 | 10% | -1.2% | 16%
COCCCN1C(=O)C(CC(=O)NCc2ccco2)CC(C(=O)N(C)C)=C1C (configuration not stated) | -1% | -8.3 | 0.3% | · | · | 1.1% | ·
CCS(=O)(=O)c1ccc2oc(Nc3ccc(C(C)C)cc3)nc2c1 | 26% | -5.0 | 12% | 3.1 | 18µM* | 32µM* | -2%
C=CCc1ccc(OCCOCCNCCOC)c(OC)c1 | -16% | -3.3 | -0.9% | 3.6 | 20% | -0.5% | 15%
Cn1cc(C(=O)N2CCCCCC2)c(=O)c2cc(S(=O)(=O)N3CCCCC3)ccc21 | ? | -3.6 | -0.6% | · | 16% | -4.8% | 4%
CC1CCN(S(=O)(=O)c2ccc3c(c2)N(CC(=O)N(C)Cc2ccco2)C(=O)CO3)CC1 | 0% | -4.7 | -0.5% | 1.3 | 5% | 2.7% | -20%
CC1CC(C)CN(C(=O)c2cn(C)c3ccc(S(=O)(=O)N(C)C)cc3c2=O)C1 (configuration not stated) | 1% | -1.7 | 3.0% | 4.0 | 12% | -0.4% | 8%
Brc1ccc(Cn2c(-c3cncs3)nc3ccccc32)cc1 | 10% | -0.7 | -1.4% | ? | -2% | -16% | -18%
COc1ccc(OCC2CCCN(Cc3nc(CC4CC4)no3)C2)cc1 (configuration not stated) | -2% | 0.9 | -1.5% | 0.4 | 1% | · | -7%
CSc1nnc(-c2ccc(C(F)(F)F)cn2)o1 | 0%[15.4 µM] | -2.7 | 0.4% | -1.2 | 11% | -0.1% | 17%
CC(C)(C)C(=O)NC1(C(F)(F)F)NC(=O)N(c2ccc(F)cc2)C1=O (configuration not stated) | -13%[15.4 µM] | -1.0 | 0.4%&0.1% | -0.8 | 9% | -2.7% | 11%
Cc1cc2c(c(=O)o1)C(c1ccc([N+](=O)[O-])o1)C(C#N)=C(N)O2 (configuration not stated) | 10%[15.4 µM] | -3.5 | 3.3% | ? | ? | · | 4%
O=C(NCc1ccccn1)c1ccc(S(=O)(=O)Nc2ccccc2F)cc1 | -4% | -5.1 | 3.3% | · | 14% | -0.3% | 11%
COC(=O)c1ccc(C2/C(=C(/O)c3ccc(OC(C)C)cc3)C(=O)C(=O)N2c2cc(C)on2)cc1 (configuration not stated) | ? | -6.0 | -0.8% | -6.7 | 4% | -0.4% | -14%
CSc1ncccc1C(=O)OCc1c(F)cccc1Cl | 5%[15.4 µM] | -3.0 | 2.1% | 4.2 | -17% | · | -10%
COc1ccc(N(CC(=O)Nc2ccc(OC)c(OC)c2)S(=O)(=O)c2ccccc2)cc1Cl | -4% | -5.7 | 5.1% | 0.8 | 15% | -2.9% | -23%
COc1ccc(C2/C(=C(/O)c3ccc4c(c3)CC(C)O4)C(=O)C(=O)N2CCN2CCOCC2)cc1 (configuration not stated) | ? | -3.6 | -0.3% | 0.0 | 8% | -1.4% | -11%
COc1ccc2cc(C(=O)NCc3ccco3)c(=Nc3ccc(C(=O)O)cc3)oc2c1 | 26% | -2.7 | -1.0% | 3.6 | -7% | 20µM* | -2%
CC(C)C(NC(=O)C1CC(=O)N(Cc2ccccc2)C1)c1nc2ccccc2[nH]1 (configuration not stated) | -52%[inhibitor] | -3.7 | -2.6% | · | · | · | 2%
Cc1ccc(S(=O)(=O)N2CCN(C(=O)C3CCN(c4ncnc5sc(C)c(C)c45)CC3)CC2)c(C)c1 | 2% | -2.2 | 0.2% | · | · | -0.4% | ?
CN(C)c1ccc(-c2nc3cc(N)ccc3o2)cc1 | 20µM* | 0.2 | 0.1% | 1.8 | 7% | ? | 12%
CC(C)(C)NC(=O)COC(=O)/C=C/c1ccccc1[N+](=O)[O-] | 6% | -2.9 | 0.9% | 0.6 | 8% | 0.2% | -16%

4 entries from above, reformatted.
> COC(=O)c1ccc(C2/C(=C(/O)c3ccc(OC(C)C)cc3)C(=O)C(=O)N2c2cc(C)on2)cc1 (configuration not stated)
- gsp agonist: ?
- D2 agonist: -6.0
- PINK1 expr mod: -0.8%
- Menin-MLL FL inh: -6.7
- Sfp PPTase inh: 4%
- ClpP mod: -0.4%
- gsp antagonist: -14%

> Cc1ccc(S(=O)(=O)N2CCN(C(=O)C3CCN(c4ncnc5sc(C)c(C)c45)CC3)CC2)c(C)c1
- gsp agonist: 2%
- D2 agonist: -2.2
- PINK1 expr mod: 0.2%
- Menin-MLL FL inh: ·
- Sfp PPTase inh: ·
- ClpP mod: -0.4%
- gsp antagonist: ?

> CCS(=O)(=O)c1ccc2oc(Nc3ccc(C(C)C)cc3)nc2c1
- gsp agonist: 26%
- D2 agonist: -5.0
- PINK1 expr mod: 12%
- Menin-MLL FL inh: 3.1
- Sfp PPTase inh: 18µM*
- ClpP mod: 32µM*
- gsp antagonist: -2%

> CSc1ncccc1C(=O)OCc1c(F)cccc1Cl
- gsp agonist: 5%[15.4 µM]
- D2 agonist: -3.0
- PINK1 expr mod: 2.1%
- Menin-MLL FL inh: 4.2
- Sfp PPTase inh: -17%
- ClpP mod: ·
- gsp antagonist: -10%
